Source: PubChem BioAssay (several laboratories)
CBX7 inh – inhibitors of human CBX7 binding to H3K27me3 peptide; O95931; AlphaScreen His6-CBX7 / biotin-H3K27me3 peptide binding; stronger effect = lower value; normalised signal (fraction of DMSO) (no concentration beside the values); 66,000 compounds, 1.1% hits; AID 1224903; in the data active means normalised signal below about 0.5;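 further: 100 nL library stock added to about 20 µL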
Target sequence (O95931 whole entry, looked up): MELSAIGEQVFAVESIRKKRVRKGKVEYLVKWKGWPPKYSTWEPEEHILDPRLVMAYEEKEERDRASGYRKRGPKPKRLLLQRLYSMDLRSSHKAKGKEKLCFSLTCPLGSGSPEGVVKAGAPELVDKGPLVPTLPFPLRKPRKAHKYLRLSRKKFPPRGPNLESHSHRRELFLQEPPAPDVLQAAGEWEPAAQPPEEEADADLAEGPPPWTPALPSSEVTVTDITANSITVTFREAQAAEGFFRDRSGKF
CBX7 inh z-score – second read-out of CBX7 inh, no call of its own (marks repeat the call); z-score; measured here: z-score of CBX7 signal; some inactives read as strong as hits; reference of the scale not given here;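 same signal on another scale; lower means less binding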
Starred values were filed as active, the others as inactive.

smiles	CBX7 inh	CBX7 inh z-score
COc1ccc2nc(N3CCC(C(=O)NCCC4=CCCCC4)CC3)sc2c1	0.739	-2.84
CN(CCCNC(=O)c1cc2sc(Cl)cc2n1C)c1ccccc1	0.95	-0.82
C=CCNc1oc(COc2ccc(C)cc2)nc1C#N	0.99	-0.289
Cc1cc2c(cc1C)C(c1cc3c(cc1Cl)OCO3)CC(=O)N2 (configuration not stated)	0.959	-0.0826
O=C(CSCc1cnn(-c2ccccc2)c1-n1cccc1)NCc1cccs1	1.05	2.18
COc1ccc(-n2c(C)nc3c(cnn3-c3ccccc3Cl)c2=O)cc1	0.868	-2.03
Cc1ccc(S(=O)(=O)c2nc(-c3ccccc3)oc2SCC(N)=O)cc1	0.931	-0.323
O=C(CN1C(=O)CSc2ccc(S(=O)(=O)N3CCOCC3)cc21)NCCCN1CCCC1	0.94	-0.686
CCN(CCCNC(=O)Cn1nc(Cc2cccnc2)c2ccccc2c1=O)c1cccc(C)c1	0.623	-0.498
COc1cccc(NC(=O)c2cnc3sccn3c2=O)c1	1.05	0.645
CC(C)c1ccc(Nc2c(-c3ccc(F)cc3)nc3cnccn23)cc1	1.16	1.54
Cc1ccccc1C(=O)Nc1sc2c(c1C(=O)N1CCC(C)CC1)CCC2	1.05	0.613
Cc1ccc(-c2csc(NC(=O)CCCOc3ccccc3C)n2)cc1	1.06	0.151
CC(C)(C)c1ccc(-c2nc3cc(NC(=O)c4ccccc4F)ccc3o2)cc1	0.956	-0.374
COc1cccc(C2(c3cccc(OC)c3)CC2C(=O)Nc2ccc(C)c(C)c2)c1 (configuration not stated)	0.959	-0.192
Cc1nc(S(=O)(=O)c2ccc(Cl)cc2)c(N(C)C)o1	1.05	0.68
CCOC(=O)c1cnn(-c2ccccc2)c1NC(=O)CSc1nc2ccc(OCC)cc2s1	1.06	1.05
CC1CCCCC1NC(=O)c1cccc(NC2=NC3CS(=O)(=O)CC3S2)c1 (configuration not stated)	1.04	0.47
O=C(CSc1nnc(COc2ccccc2)o1)Nc1nccs1	0.565	-2.82
Cc1cc2c(cc(C(=O)NCCCN3CCOCC3)n2Cc2ccc(Cl)cc2)o1	1.1	2.81
COc1ccc(CCC(=O)Nc2ccc(-c3noc(/C=C/c4ccccc4)n3)cc2)cc1	0.887	-0.446
Clc1ccc(-c2nc3ccccn3c2Nc2ccc3c(c2)OCCO3)cc1	0.613	-14.5
CC(=O)Nc1ccc(NC(=O)CCc2c(C)nc3cc(-c4cccc(F)c4)nn3c2C)cc1	0.885	-1.89
COc1ccccc1Nc1cc(C(=O)NCCN2CCOCC2)c2ccccc2n1	1.1	2.72
OCCNc1ccc2nnc(C(F)(F)F)n2n1	1.03	0.726
O=C(Nc1cccc(Cl)c1)N(Cc1nnc2n1CCCCC2)c1ccccc1	0.982	-0.321
CCc1ccc(C(=O)CC2(O)C(=O)Nc3c(C)cccc32)cc1 (configuration not stated)	0.897	-2.96
O=c1[nH]nc(-c2ccccc2)c2nc[nH]c12	0.948	-0.623
COc1ccc(C)cc1NC(=O)C1CCN(S(=O)(=O)c2cccc3cccnc23)CC1	0.955	-0.573
Cc1cccc(C(=O)Nc2cc(-c3nc4ccccc4o3)ccc2C)c1	0.863	-0.553
O=C(CCCC1=NS(=O)(=O)c2ccccc2N1)Nc1ccc(Cl)c(Cl)c1	0.962	-0.809
COc1ccc(NC(=O)Nc2cccs2)cc1OC	0.816	-3.46
COc1ccc(CC(=O)NCCc2cc3ccc(OC)cc3[nH]c2=O)cc1	1.02	0.464
CC1CCN(c2nc3ccc(C(=O)NCCc4ccc(S(N)(=O)=O)cc4)cc3s2)CC1	0.999	-0.0285
COc1ccc(N(C)C(=O)c2cn(CC(C)C)c(=O)c3cc(OC)c(OC)cc23)c(OC)c1	1.07	2.91
Cc1ccccc1N(C)C(=O)c1cc2c(s1)-c1ccccc1OC2	1.13	6.22
NC(=O)CSc1nc2ccc(Cl)cc2o1	0.952	-1.19
CCOc1ccc(CCNC(=O)CS(=O)(=O)Cc2nc(-c3ccc(C)cc3)oc2C)cc1	0.836	-0.341
COc1ccc(C2(CNC(=O)c3ccc(OCC(C)C)cc3)CCCC2)cc1OC	0.816	-0.422
Cc1cc(OCc2nc(-c3cccnc3)no2)cc(C)c1Cl	1.01	0.0956
COc1cc2c(cc1OC)C(c1cccc(Cl)c1)CC(=O)N2 (configuration not stated)	0.886	-0.918
O=C(CCCn1nc(-c2ccccc2)c2ccccc21)NCc1ccc(Cl)cc1	0.999	-0.0238
COc1ccc(C2C(C(=O)Nc3ccc4c(c3)OCCO4)CCC(=O)N2c2ccc3c(c2)OCO3)cc1 (configuration not stated)	1.01	0.588
O=C(NCc1ccccc1Cl)c1csc2c1CCCC2	1.05	1.45
COc1ccc(Nc2nc(-c3ccc(OC)c(OC)c3)nc3ccccc23)cc1OC	0.983	-0.332
O=C(O)c1ccccc1Nc1ccn2c(=O)c3ccccc3nc2n1	0.754	-1.08
COc1ccc2c(c1)c(=O)c(S(=O)(=O)c1ccc(C)cc1)cn2CC(=O)Nc1ccccc1OC	0.801	-3.27
CC1CCN(S(=O)(=O)c2ccc(C(=O)Nc3ccccc3-c3nc4ccccc4[nH]3)cc2)CC1	0.962	-0.0449
CC(C)=C1C2C=CC1C1C(=O)N(Cc3cccnc3)C(=O)C21 (configuration not stated)	1.09	1.4
O=C(NCc1ccccn1)C1CCC(=O)N1C1CCCC1 (configuration not stated)	0.976	-1.14
O=C(COc1ccc2oc3c(c2c1)CCCC3)Nc1ccccn1	0.962	-0.431
CCc1ccc(NC(=O)CCCc2cc(-c3ccc(OC)cc3)on2)cc1	1.03	0.929
COc1ccc(Cc2nc3cc(C(=O)O)ccc3[nH]c2=O)cc1	0.89	-1.16
c1ccc(N2CCN(c3nnc(Cc4cccnc4)c4ccccc34)CC2)cc1	0.93	-1.55
CCN(CC)S(=O)(=O)c1ccc(C(=O)Nc2nc3ccc(Cl)cc3s2)cc1	1.25	2.42
COc1cc(NC(=O)CCC2=NS(=O)(=O)c3ccccc3N2)cc(OC)c1	1.03	0.679
Cc1ccc(S(=O)(=O)CCc2nnc(NC(=O)c3ccc(C(C)(C)C)cc3)s2)cc1C	0.891	-3.88
COc1cccc(-c2nn(C)c3sc(C(=O)Nc4cc(OC)ccc4OC)cc23)c1	0.855	-1.5
CN(CCNC(=O)c1cc(=O)[nH]c2ccc(S(=O)(=O)N3CCCCC3)cc12)Cc1ccccc1	1.01	0.41
CCN(CC)C(=O)Cn1cnc2sc(C(=O)NCCCN3CCOCC3)c(C)c2c1=O	0.972	-0.978

Other records
smiles	CBX7 inh	CBX7 inh z-score
O=C(NCc1ccccc1)c1ccc2c(c1)N(Cc1ccccc1Cl)C(=O)CS2	1.09	1.84
CC(=O)c1c(C)nc2n(C)c3ccccc3n12	1.02	0.282
Cc1ccc(-c2noc(COc3ccc(C)cc3Br)n2)cc1	1.19	6.86
CCOC(=O)c1ccc(Nc2cc(C)nc(-c3ccccc3)n2)cc1	0.997	-0.0121
CCN(CC)c1ccc(NC2c3ccccc3C(=O)N2c2ccc(Cl)cn2)c(C)c1 (configuration not stated)	0.065*	-12*
Cc1ccnc(NC(=O)Cc2cn(C)c3ccccc23)c1	0.881	-1.36
COc1ccc(-c2nn(C)c3sc(C(=O)NCCCN4CCOCC4)cc23)cc1OC	1.01	0.294
NC(=O)c1ccccc1NC(=O)c1c(O)c2ccccc2[nH]c1=O	0.907	-1.35
Cc1nc2nc(C)c(CCC(=O)Nc3ccc(C)c(Cl)c3)c(C)n2n1	1.01	0.0271
COc1ccc(Nc2nc(C)cc(C)c2C(N)=O)c(OC)c1	0.949	-0.714
Cc1nc2cc(-c3cccc(F)c3)nn2c(C)c1CCC(=O)NCCN1CCCC1	1.01	0.557
Clc1ccc(-c2nc(-c3ccncc3)no2)cc1Cl	1.04	0.0461
CCN1C(=O)CSc2ccc(C(=O)NCc3ccc(C)cc3)cc21	1.02	0.497
O=S(=O)(Nc1cccc(-c2cn3ccccc3n2)c1)c1ccc(F)cc1	1.02	0.591
OC1(c2cnn(Cc3ccccc3)n2)CCCCC1	1.04	1.63
O=C(NCc1ccc2c(c1)OCO2)c1cc2ccccn2n1	1.04	1.12
CC1CCCCN1Cc1c(O)ccc2cc(-c3nc4ccccc4[nH]3)c(=O)oc12 (configuration not stated)	1.23	0.922
Oc1ccc(-c2nc(-c3ccc(F)cc3)c(-c3ccc(F)cc3)[nH]2)cc1	1.17	0.393
CC(Sc1oc(-c2cccs2)nc1S(=O)(=O)c1ccccc1)c1ccccc1 (configuration not stated)	0.97	-0.249
O=C(c1ccccc1)N1CCN(c2ccc3nnc(-c4ccc(F)cc4)n3n2)CC1	1.02	0.349
COc1cc(NC(=O)C2CCCN2S(=O)(=O)c2ccc3c(c2)CCC(=O)N3)cc(OC)c1 (configuration not stated)	0.941	-1.07
CCCN(CCC)CCCNC(=O)c1cc(Nc2ccc(OC)cc2)nc2ccccc12	1.01	0.121
CC(=O)Nc1ccc(NC(=O)C2CCN(C(=O)c3cnn(-c4ccccc4)c3-n3cccc3)CC2)cc1	1.24	1.83
COc1ccc(Cl)cc1-n1cnc2cc(C(=O)NCC(OC)OC)ccc21	0.861	-1.75
O=C(NCCC1=CCCCC1)c1ccc2nc(N3CCOCC3)sc2c1	1.03	1.25
COc1cccc(CNc2ccc3c(c2)nc(C)n3C)c1	1.02	0.635
O=C1CCCc2c1cc(C(=O)Nc1cccc(F)c1)c(=O)n2-c1ccccc1	0.986	-0.0622
CC(C)CCNC(=O)CC1Oc2ccc(Cl)cc2NC1=O (configuration not stated)	1.07	2.86
Cc1ccc(Nc2nc(-c3ccccc3Cl)c3cc(Br)ccc3n2)cc1	1.29	4.95
CCOc1ccc(C(=O)Nc2ccc3nc(N4CCN(c5ncccn5)CC4)cc(C)c3c2)cc1	1.01	0.326

Record cards, from the list above:
CCOc1ccc(C(=O)Nc2ccc3nc(N4CCN(c5ncccn5)CC4)cc(C)c3c2)cc1 across the screens: CBX7 inh: 1.01; CBX7 inh z-score: 0.326
Cc1nc2cc(-c3cccc(F)c3)nn2c(C)c1CCC(=O)NCCN1CCCC1 across the screens: CBX7 inh: 1.01; CBX7 inh z-score: 0.557

Five entries already listed, arranged by SMILES length, lowest first.
smiles	CBX7 inh	CBX7 inh z-score
COc1ccc(NC(=O)Nc2cccs2)cc1OC	0.816	-3.46
NC(=O)c1ccccc1NC(=O)c1c(O)c2ccccc2[nH]c1=O	0.907	-1.35
Clc1ccc(-c2nc3ccccn3c2Nc2ccc3c(c2)OCCO3)cc1	0.613	-14.5
COc1ccc(Nc2nc(-c3ccc(OC)c(OC)c3)nc3ccccc23)cc1OC	0.983	-0.332
O=C(c1ccccc1)N1CCN(c2ccc3nnc(-c4ccc(F)cc4)n3n2)CC1	1.02	0.349

More compounds
smiles	CBX7 inh	CBX7 inh z-score
Cc1cccc(OCc2nc(-c3ccccn3)no2)c1C	1	0.0929
O=C(NCCC1=CCCCC1)c1cc(=O)[nH]c2ccc(S(=O)(=O)N3CCCC3)cc12	0.983	-0.193
CCn1c(=N)n(CC(O)COc2ccc(OC)cc2)c2ccccc21 (configuration not stated)	0.978	-0.142
CC(C)CSc1nc(N2CCOCC2)c2c(c1C#N)CC(C)(C)OC2	1.09	2.36
Cc1ccc(C(=O)Nc2sc3c(c2C(=O)N2CCN(C)CC2)CCC(C)C3)cc1 (configuration not stated)	0.818	-0.248
CC(C(=O)Nc1ccc2c(c1)OCCO2)N1C(=O)c2ccccc2C1=O (configuration not stated)	1.03	0.117
CC(NC(=O)CC(C(=O)N1CCc2ccccc21)n1ccnc1)C12CC3CC(CC(C3)C1)C2 (configuration not stated)	0.93	-2.74
CC(C)c1ccc(NC(=O)C(c2ccccc2)N(C)C)cc1 (configuration not stated)	0.969	-0.709
NC(=O)c1ccc(Nc2nnc(-c3ccc(O)cc3)c3ccccc23)cc1	0.96	-0.456
CCCc1nnc(NC(=O)CN2C(=O)c3ccccc3S2(=O)=O)s1	1.25	3.59
Cc1ncc(CO)c2cc(C(=O)Nc3ccc(I)cc3)c(=O)oc12	1.05	0.925
CCOc1ccc(NC(=O)C2c3ccccc3C(=O)N3CCc4cc(OC)c(OC)cc4C23)cc1 (configuration not stated)	0.993	-0.179
Fc1ccccc1-c1nc(N2CCCc3ccccc32)c2ccccc2n1	1.4	4.1
CCN(CC)c1cc(C)c2cc(NC(=O)c3ccccn3)ccc2n1	1.11	1.17
CC(C)=C1C2CCC1C1C(=O)N(c3nc(-c4ccc(Cl)cc4)c(C)s3)C(=O)C21 (configuration not stated)	1	0.0543
Cc1ccccc1NS(=O)(=O)c1ccc2[nH]cc(C(=O)N3CCc4ccccc43)c(=O)c2c1	0.685	-4.34
CC1CC(C)CN(S(=O)(=O)c2ccc3c(c2)N(CC(=O)NC2CC2)C(=O)CO3)C1 (configuration not stated)	0.984	-0.446
Cc1cc(C)cc(-n2ccnc2SCC(=O)Nc2ccc(Cl)cc2)c1	0.653	-13
c1cncc(CNc2c3c(nc4ccccc24)CCC3)c1	1.05	1.01
CCOc1ccc(Nc2nc(-c3ccc(C)cc3)c(CC(=O)O)s2)cc1	1.16	1.76
CCOc1ccccc1NC(=O)CCc1c(C)nc2c(-c3ccc(F)cc3)c(C)nn2c1C	1.09	2.12
NC(=O)C1CC(=O)N(c2ccc(OCc3ccc(F)cc3)cc2)C1 (configuration not stated)	1.08	1.71

Some of the compounds tested; count on the stated rates, not on these rows.
